FGF22 binding = binders of recombinant human FGF22 by thermal shift | Q9HCT0 | SYPRO orange fluorescence; percent of sucrose octasulfate shift, DMSO zero | calls only at 9.99 µM | 340,000 compounds, 1.5% hits | AID 651658;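 active means melting point raised past a set limit in the mean and every replicate; inconclusive means no clear call; three in four hits are not shown here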
Target sequence (Q9HCT0 whole entry, looked up): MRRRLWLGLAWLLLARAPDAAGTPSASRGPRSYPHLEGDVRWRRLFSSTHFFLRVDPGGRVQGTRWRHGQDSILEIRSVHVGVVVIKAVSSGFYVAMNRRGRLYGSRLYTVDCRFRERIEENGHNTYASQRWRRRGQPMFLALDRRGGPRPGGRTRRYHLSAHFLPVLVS
Bfl-1 A1 inh = inhibitors of the anti-apoptotic protein A1, read as caspase activation. MEF A1-2A-BIM cells, Caspase-Glo 3/7 luminescence, 3 h; percent of clofoctol response, vehicle zero. caspase activation, % (no concentration beside the values). 330,000 compounds, 0.066% hits. AID 2462;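 active means over half of replicate activation scores above 10%, or exactly half above 10 with the replicate mean above 10; inconclusive means replicate mean below 10 yet half the replicates above 10; inactive means over half of replicates below 10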;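 further: wells of about 30 µL received 50 nL stock; many hits fall short of the cut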
Beta cell apopt = blocks beta cell apoptosis. 300,000 compounds, 0.8% hits. protection from apoptosis, % (concentration not given with the values). INS-1E cytokine-induced death, ATP luminescence, 48 h; percent of positive-control rescue, neutral wells zero;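 active means all replicates at 75% or more, or half of them and the mean; inconclusive means half reach 75% but not the mean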;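 further: 0% = cytokine-treated negative control wells and 100% = positive control rescue; higher means more ATP so stronger rescue from cytokine killing; wells of about 40 µL received 100 nL stock; the first replicate is given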
T cruzi inh = T. cruzi replication inhibition | inhibition, % (test concentration not listed) | T. cruzi beta-gal in NIH3T3, luminescence, 90 h | AID 1885 | 300,000 compounds, 1.4% hits;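 active means mean inhibition across valid replicates above about 55%, limit read from the data; inconclusive means mean below that limit but half or more replicates reach it; inactive means mean below it, under half of replicates reach it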;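 further: signal also drops with host cell toxicity which is not excluded here; 0% = plate median of DMSO wells and 100% = zero luminescence signal; higher percent means less beta-gal luminescence so fewer parasites; stock transfer was 50 nL into about 50 µL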
Ecoli growth = inhibitors of Escherichia coli growth. OD600 absorbance (no concentration beside the values). 330,000 compounds, 0.21% hits. OD600, 23 h; hits give low values;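 active means OD600 absorbance below the run mean of sample wells minus 3.6 SD, in any replicate, cut at about 0.56 in these data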;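 further: stock transfer was 300 nL into about 60 µL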
Ecoli rRNA inh = selective bacterial rRNA inhibition in E. coli. E. coli WT GFP vs humanized-ribosome RFP mutants, fluorescence, 24 h; hits give low values; DMSO median 0, no signal -100. GFP signal change (wild-type ribosome), % (test concentration not listed). 350,000 compounds, 1.6% hits;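 active means significant combined selectivity score with lowered wild-type GFP, culture density cut under 30%, mutant RFP and density less affected; inactive means any of these conditions unmet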; further: one replicate is shown; some compounds called inactive have numbers as strong as hits
MLL AF4-AF9 inh = inhibitors of human MLL-AF4/AF9 interaction; AID 651704; inhibition, % at 10 µM; 350,000 compounds, 0.47% hits; AlphaScreen, biotin-AF4 peptide binding to FLAG-AF9;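 active means every replicate reaching a set inhibition limit, whatever the replicate mean, cut at about 25% in these data; inconclusive means mean inhibition reaches that limit but some replicates miss it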;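 further: 0% = plate neutral control median and 100% = total signal loss; the record names both 10 and 1 µM as test concentration; the first replicate is given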
Target sequence (P42568 whole entry, looked up): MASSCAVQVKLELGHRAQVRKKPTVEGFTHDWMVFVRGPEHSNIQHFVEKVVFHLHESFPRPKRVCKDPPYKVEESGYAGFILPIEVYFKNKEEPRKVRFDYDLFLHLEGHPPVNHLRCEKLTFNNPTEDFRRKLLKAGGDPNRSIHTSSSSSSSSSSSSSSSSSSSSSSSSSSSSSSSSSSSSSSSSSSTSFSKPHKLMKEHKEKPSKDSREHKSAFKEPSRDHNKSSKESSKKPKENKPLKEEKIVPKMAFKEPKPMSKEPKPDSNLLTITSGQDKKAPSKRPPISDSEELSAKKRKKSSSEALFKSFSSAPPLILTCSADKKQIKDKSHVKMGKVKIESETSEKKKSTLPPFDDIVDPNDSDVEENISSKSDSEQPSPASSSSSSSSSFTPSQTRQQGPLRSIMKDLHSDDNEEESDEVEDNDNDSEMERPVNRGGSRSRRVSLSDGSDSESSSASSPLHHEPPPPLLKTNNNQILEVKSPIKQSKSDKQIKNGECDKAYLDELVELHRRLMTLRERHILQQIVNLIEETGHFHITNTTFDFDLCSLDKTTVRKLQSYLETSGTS
UCH37 DUB inh = human UCH37 deubiquitinating enzyme inhibition; Q9Y5K5; purified proteasome/UCH37, Ub-AMC cleavage fluorescence; inhibition, % (concentration not given with the values); 330,000 compounds, 0.33% hits;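 active means mean of two replicates above 20%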;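 further: 0% = compound-free wells with enzyme and 100% = wells lacking proteasome; stock transfer was 100 nL into about 20 µL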
Target sequence (Q9Y5K5 whole entry, looked up): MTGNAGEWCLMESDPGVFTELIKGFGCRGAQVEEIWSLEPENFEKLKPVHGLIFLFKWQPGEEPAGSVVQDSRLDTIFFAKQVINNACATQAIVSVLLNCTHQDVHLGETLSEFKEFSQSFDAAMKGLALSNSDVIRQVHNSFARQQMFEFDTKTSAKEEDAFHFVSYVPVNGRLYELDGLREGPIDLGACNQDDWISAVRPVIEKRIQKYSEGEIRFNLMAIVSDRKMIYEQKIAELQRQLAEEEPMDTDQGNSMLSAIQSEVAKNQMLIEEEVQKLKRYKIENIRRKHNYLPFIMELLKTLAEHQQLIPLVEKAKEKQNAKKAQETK
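Reagent: Ub-AMC substrate; assay system: Proteasome-associated human UCH37 deubiquitinase; controls: no-proteasome and no-compound wells; read-out: % inhibition of Ub-AMC cleavage fluorescence; timing: 30 min preincubation with enzyme, 25 min cleavage at room temperature; signal: AMC fluorescence from Ub-AMC cleavage, excitation 355 nm, emission 460 nm; buffer or medium: Tris-HCl pH 7.4 plus ovalbumin, ATP-MgCl2, DTT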
Ecoli rRNA inh OD600 = also measured in Ecoli rRNA inh; calls as there; OD600 change, %; measured here: OD600 growth;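 optical density of the mix in the first replicate; 0 = DMSO median and -100 = no signal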
Ecoli rRNA inh RFP = also measured in Ecoli rRNA inh; calls as there; RFP signal change, %; measured here: RFP humanized mutant strains;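 first replicate; 0 = DMSO median and -100 = no signal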
Starred values were filed as active, the others as inactive; i = inactive; ? = inconclusive; · = no result given. This is a subset, so the mix of outcomes need not match the whole.

SMILES | FGF22 binding | Bfl-1 A1 inh | Beta cell apopt | T cruzi inh | Ecoli growth | Ecoli rRNA inh | Ecoli rRNA inh OD600 | Ecoli rRNA inh RFP | MLL AF4-AF9 inh | UCH37 DUB inh
Cc1cccc(N(C)C(=O)c2cc(S(=O)(=O)N3CCc4ccccc43)cn2C)c1 | i | -0.2 | 3.6 | 9.1 | 0.715 | -19.4 | -34.0 | -3.5 | 1.5 | 5.9
COc1ccc(CNc2nc3nc4c(c(=O)n3[nH]2)CCC4)cc1 | · | 0.6 | 4.8 | -20.0 | 0.658 | · | · | · | · | 3.5
CCN1CCN(c2nc(-c3ccccc3)nc3ccccc23)CC1 | · | 0.3 | 8.8 | -2.2 | 0.634 | · | · | · | · | 3.1
COc1ccc(CNc2nc(S(=O)(=O)c3ccccc3)c(Cl)s2)cc1OC | i | 0.0 | 9.5 | -5.0 | 0.65 | -9.6 | -19.9 | -8.7 | 3.4 | 3.4
Cc1csc(SC(C)C(=O)NC2CCCCC2C)n1 (centres undefined) | i | 0.0 | · | -11.2 | 0.64 | 12.2 | 9.0 | 0.8 | -0.6 | 3.2
Fc1ccc(C2CC(c3ccco3)n3ncnc3N2)cc1 (centres undefined) | · | 0.0 | -3.3 | -2.7 | 0.665 | 4.5 | 3.2 | -0.1 | -2.5 | 0.1
O=C(CN1CCN(c2ccc(F)cc2)CC1)N(C1CCCC1)C1CCS(=O)(=O)C1 (centres undefined) | i | 1.0 | -7.4 | · | 0.681 | 1.4 | 7.7 | -1.6 | 2.8 | 2.7
CCOC(=O)C1=C(C)NC(C)=C(C(=O)OCC)C1C(=O)OCC(=O)NCc1ccccc1 | i | 1.2 | -5.2 | · | 0.683 | -7.7 | -17.1 | -1.2 | -2.1 | -32.6
C#CCCc1ccccc1/C=[N+](/C)[O-] | i | 0.0 | -9.9 | · | · | 17.6 | -8.5 | 3.4 | -11.8 | 0.6
O=P(O)(Cc1ccccc1)Cc1ccccc1 | i | 1.9 | 1.2 | -8.0 | 0.681 | -2.4 | -5.2 | -3.8 | -1.3 | 2.9
CCn1cc(C2C(C(=O)Nc3ccc(Br)cn3)=C(C)NC3=C2C(=O)CCC3)c(C)n1 (centres undefined) | · | -0.1 | 0.0 | 3.2 | 0.66 | · | · | · | · | -287.0
S=C(NCc1ccccn1)Nc1ccc(Cl)cc1Cl | · | -0.7 | -7.7 | -25.6 | 0.679 | · | · | · | · | 3.4
COC(=O)C1=C(C)N(Cc2ccccc2)C(=NCc2ccc(OC)cc2)N[C@H]1c1cccc(F)c1 | i | -0.3 | 4.5 | 25.6 | · | -57.4 | -79.0 | -35.6 | 5.2 | -0.7
CCc1ccc(CN2CCCC(CNS(=O)(=O)c3ccc(OC)cc3)C2)cc1 (centres undefined) | i | 1.5 | -0.9 | 48.2 | 0.699 | -21.8* | -12.6* | 6.5* | 0.9 | 4.8
Cc1c(/C=N/Nc2nc3ccccc3[nH]2)c2ccccc2n1C | i | -0.6 | 117.0* | 56.4* | · | -45.5 | -37.0 | -6.8 | 25.0* | ·
COc1ccc(CNc2ncnc3c2[nH]c2cc(OC)c(OC)cc23)cc1 | i | 1.5 | -2.1 | 8.9 | 0.666 | -58.5 | -63.2 | 7.1 | 8.6 | -24.9
COc1ccccc1/C=N/N1CCN(c2ccc(Cl)cc2)CC1 | i | 0.5 | · | 6.6 | · | 6.5 | 2.3 | -2.2 | 5.2 | ·
CC(SC1=NCCN1S(=O)(=O)c1ccc(F)cc1)c1ccccc1 (centres undefined) | i | -0.5 | 5.4 | 2.2 | 0.727 | -29.9 | -38.0 | -3.4 | -7.6 | 1.3
Cc1nonc1OCCNCCNc1ccc([N+](=O)[O-])cc1Cl | i | -0.6 | · | 38.7 | 0.66 | 1.6 | 3.9 | 2.7 | 2.9 | 2.4
COc1ccc(-c2cc(C)no2)cc1S(=O)(=O)Nc1cccc(C)c1 | i | -0.2 | 2.9 | 26.7 | 0.68 | -2.0 | -11.3 | 17.1 | -6.8 | 0.3
CCc1cccc(CC)c1N1C(=O)c2cc(N3CCOCC3)c([N+](=O)[O-])cc2C1=O | · | 0.2 | -6.6 | -23.6 | 0.724 | · | · | · | · | 3.6
CC(C)(C)OC(=O)C[C@@H]1C/C=C\C[C@H](CC(=O)N(CCO)Cc2ccccc2)C(=O)NC[C@@H](c2ccccc2)OC1=O | i | 0.1 | -6.6 | · | · | -11.7 | -17.4 | -11.8 | 0.6 | 3.2
COc1ccc(C2C3CCCCC3(O)CCN2C(=O)c2cccs2)cc1 (centres undefined) | · | -0.5 | -3.3 | 5.7 | 0.633 | · | · | · | 3.3 | -0.4
O=C(O)c1ccc(N2CCN(c3ccc(Cl)cc3)CC2)c([N+](=O)[O-])c1 | i | 0.1 | · | 4.2 | 0.664 | 6.1 | 17.1 | 1.0 | 5.0 | 5.2
Cc1ccc2[nH]c3c(c2c1)CNCC3 | i | -0.6 | -5.2 | 0.5 | 0.691 | -4.5 | -12.8 | -2.2 | 3.9 | 2.8
Cc1cc(OCC(=O)Nc2ccncc2)cc(C)c1Br | · | -0.3 | -9.0 | 1.0 | 0.692 | · | · | · | · | 0.7
O=C(NC(=O)c1ccccc1N1CCCCC1)Nc1ccc(Br)cc1 | i | 0.3 | 8.6 | -3.2 | 0.642 | 6.9 | -6.8 | -2.4 | -3.2 | 2.1
CC(=O)CC(C)(C)S(=O)(=O)c1ccc(NC(C)=O)cc1 | i | 0.2 | -9.5 | 1.6 | 0.69 | 11.0 | 10.3 | -5.6 | 4.0 | -0.9
COc1ccc(NC(=O)NCCN2CCN(c3ccc(C)cc3)CC2)c(Cl)c1 | i | -0.4 | · | 3.3 | 0.688 | · | · | · | -7.5 | 1.9
N#C/C(=C(/O)COc1ccc(Br)cc1)c1nnc2n1CCCCC2 | i | -0.4 | -4.1 | -20.0 | 0.666 | -13.1 | -2.7 | -0.9 | -3.2 | 0.9
COC(=O)c1ccc(Cl)c(NC(=O)CN(c2ccccc2)S(=O)(=O)c2ccc(OC)cc2)c1 | i | 0.7 | 5.6 | 17.2 | 0.697 | -4.8 | -5.3 | -10.2 | -2.0 | 2.6
COCC(=O)c1[nH]c2ccccc2c1C | · | 1.1 | -1.3 | -15.0 | 0.649 | · | · | · | · | 4.1
CCOC(=O)c1c(COc2ccccc2)oc2ccc(O)cc12 | · | 0.6 | -1.9 | 5.2 | 0.701 | · | · | · | · | 2.6
CCOc1ccc(C(=O)NCC(=O)OCC(=O)Nc2ccccc2OC)cc1 | · | -0.6 | 0.0 | -12.4 | 0.709 | · | · | · | · | 3.8
CCCCC(CCC(=O)Nc1cccc([N+](=O)[O-])c1)C(=O)O (centres undefined) | i | 0.5 | -3.8 | -9.2 | 0.677 | -7.0 | 3.2 | 1.9 | 4.8 | 1.6
CCc1cccc(OCC(=O)N(C)CC(=O)Nc2cccc(F)c2)c1 | i | 0.2 | · | -9.5 | 0.682 | 2.2 | -3.5 | 1.1 | -1.8 | 2.5
COc1ccc(Cc2nc(C(=O)Nc3ccc(F)cc3)cs2)cc1 | · | 0.0 | -5.1 | -9.8 | 0.695 | -25.6 | -29.7 | 1.8 | · | 0.7
CCOC(=O)c1cc2c(ccn2C)n1Cc1ccc(Cl)cc1 | i | -0.9 | -5.7 | 3.1 | 0.684 | -15.4 | -12.8 | -2.8 | 6.6 | -4.5
O=C1ON=C(c2ccc([N+](=O)[O-])cc2)/C1=C/c1ccccc1O | i | -2.1 | 3.0 | -3.5 | 0.674 | 13.3 | 17.1 | 2.6 | 3.0 | 2.7
Cc1nn(CC(=O)N2CCCCCC2)c(=O)c2cc3occc3n12 | i | 0.2 | -8.1 | 11.4 | 0.697 | 0.6 | 8.6 | 0.1 | 2.2 | 3.2
O=C(NCCNCc1ccccn1)c1ccco1 | i | 0.4 | -4.5 | -2.6 | 0.683 | 4.5 | 6.3 | 2.0 | -0.9 | -1.5
Cc1c(C(=O)N(C)Cc2ccc(OC(F)F)cc2)oc2ccccc12 | i | 0.7 | -5.5 | 12.1 | 0.656 | -4.3 | -20.1 | -0.4 | -3.3 | 2.2
CC(C)(C)NC(=O)CSc1nncn1-c1ccccc1 | · | 0.1 | · | -9.7 | 0.671 | · | · | · | · | -1.3
O=C(Nc1cccc(S(=O)(=O)Nc2ccc(Cl)cc2)c1)c1ccc[n+]([O-])c1 | i | -0.1 | -4.0 | 13.0 | 0.671 | -7.8 | -13.6 | 3.1 | 3.9 | 3.1
CCNC(=O)NC(=O)C(C)OC(=O)c1ccc(SC)cc1OC (centres undefined) | i | 0.1 | 4.9 | 9.4 | 0.64 | 12.4 | 10.7 | 1.4 | -0.3 | 5.6
CC(=O)N1CCN(c2ccccc2NC(=O)COc2ccc(Br)cc2)CC1 | · | -0.4 | -2.1 | 19.1 | 0.607 | · | · | · | · | 6.5
CCOC(=O)c1[nH]cnc1C(=O)Nc1ccccc1 | i | 0.1 | 2.2 | -9.4 | 0.703 | 15.9 | 11.8 | -2.4 | -1.0 | 2.7
CCC(C)[C@H](NC(=O)NCCC1=CCCCC1)C(=O)O (some centres undefined) | i | 1.0 | -3.4 | 3.6 | 0.641 | 8.3 | 3.5 | -5.5 | 4.7 | 2.2
Cc1ccc(C)c(NC(=O)CSc2nnc(-c3cc(C)[nH]n3)n2N)c1 | i | -0.1 | -0.1 | -4.7 | 0.613 | 1.2 | 0.5 | -2.0 | -4.8 | 0.1
Cc1cc(N)n2nc(C)c(-c3ccc(Cl)cc3)c2n1 | i | 0.0 | 3.5 | 1.6 | 0.677 | -3.5 | 4.8 | 7.6 | -4.1 | -58.5
CC(=O)c1cnc(N(C)C)s1 | · | 0.1 | -4.2 | 2.8 | 0.711 | · | · | · | · | 11.7
C#CCNc1ccc(C(=O)OCC)cc1 | i | -0.2 | 2.1 | -4.6 | 0.613 | 9.2 | 5.4 | 11.6 | -2.0 | 5.3
COc1ccc(S(=O)(=O)N/N=C(/C)c2ccc(C)o2)cc1 | i | 0.1 | -0.1 | -6.0 | · | -11.7 | -2.8 | 5.9 | -11.9 | ·
Cc1ccccc1Nc1nc(N)nc(CN(C)Cc2ccccc2Cl)n1 | i | -0.6 | -0.4 | -0.2 | 0.694 | 2.4 | -6.3 | 0.7 | 5.1 | 2.8
CC1C/C(=C/c2cccs2)C(=O)/C(=C/c2cccs2)C1 (centres undefined) | i | 0.3 | 3.2 | -1.2 | 0.685 | -2.6 | 3.3 | 1.8 | ? | 9.6
O=C(CSc1n[nH]c(-c2ccncc2)n1)c1cccc([N+](=O)[O-])c1 | i | -0.3 | 0.3 | -16.7 | 0.64 | 2.6 | 3.0 | -3.2 | -0.6 | 0.6
